PrP UTR inh – inhibition of PrP 5' UTR reporter expression; cell-based PrP 5' UTR mRNA reporter, plate reader; inhibition, % (no concentration beside the values); 340,000 compounds, 0.35% hits; AID 488862, 2010;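 active = every replicate at 50% or more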;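 also: 0 = median of the neutral control wells; tested in H4 reporter cells; numbers are from one replicate; inactives centre near -14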
Mtb hypoxia rep – PubChem AID 1159583; M. tuberculosis hypoxia-regulated fluorescent reporter, fluorescence; fluorescence inhibition, % (concentration not given with the values); 300,000 compounds, 0.1% hits;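 active = 35 to 45% if threefold the growth effect, above 45% if 1.5-fold the growth effect; inactive = the rest, general growth blockers included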;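 also: wells of about 50 µL received 100 nL stock; 0% = vehicle wells and 100% = reference inhibitor wells; whole bacteria with a GFP reporter of the hypoxia response; strong numbers were not always called active; many hits fall short of the cut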
ugtP null kill – growth inhibition of ugtP-null S. aureus, primary screen, RN4220 ugtP deletion, OD600; 16 h; some inactives read as strong as hits; growth inhibition, % (concentration not given with the values); 330,000 compounds, 0.54% hits; AID 1259309, 2017;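 active = z-score under -3 and OD600 up to 0.15 on both plates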;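 also: plate controls were untreated wells for no effect and antibiotic for full effect; wells of about 80 µL received 100 nL stock; the first replicate is given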
Bead autofluor – counter-screen for toxin protease inhibitors: compound fluorescence; compound autofluorescence counterscreen, microsphere flow cytometry; stronger effect = higher value; fluorescence intensity (test concentration not listed); 360,000 compounds, 3.1% hits;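 active = at least 3 SD above the mean of all compounds, about 16000 in these data; inconclusive = too few beads counted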;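 also: 100 nL of 1 mM stock went into each well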
RN4220 kill – growth inhibition of S. aureus RN4220, primary screen, OD600. 16 h. inhibition, % (no concentration beside the values). 330,000 compounds, 0.33% hits. AID 1259311, 2017;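 active = z-score of -3 or lower and OD600 up to 0.18 on both plates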;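 also: plate controls were untreated cells for no effect and reference antibiotic for full effect; stock transfer was 100 nL into about 80 µL; one replicate is shown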
BJeLR viability – MLPCN primary cell-based screen for lethality selective to Ras in HRASV12 cells. BJeLR (HRASV12) viability, CellTiter-Glo ATP luminescence, 48 h; reference of the scale not given here. inhibition, % (no concentration beside the values). 300,000 compounds, 0.17% hits. AID 1554, 2009;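 active = replicate mean above 50%; inconclusive = above 50% but judged a plate artefact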;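 also: 50 nL library stock added to about 25 µL; numbers are from one replicate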
Mtb hypoxia rep growth – recorded beside Mtb hypoxia rep, whose call it bears; growth inhibition, %; measured here: M. tuberculosis growth (absorbance);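 0% = vehicle and 100% = reference antibiotic; read after six days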
An asterisk follows results filed as active; ? = inconclusive; . = no result given.

Abbreviations – A = PrP UTR inh; B = Mtb hypoxia rep; C = Mtb hypoxia rep growth; D = ugtP null kill; E = Bead autofluor; F = RN4220 kill; G = BJeLR viability
Cc1cccc(N(C(=O)CCC(=O)Nc2cccnc2)C(C(=O)NC2CCCC2)c2ccncc2)c1 (stereo not drawn)
  A = -12	B = 12	C = 13	D = 7	E = 2615	F = 6.8	G = 1

CN(c1ccccc1)S(=O)(=O)c1cccc(NC(=O)CSc2ncn[nH]2)c1
  A = -12	B = 5	C = 1	D = 9	E = 2011	F = 8.3	G = 10

O=C(Nc1ccc(N2CCOCC2)c(S(=O)(=O)Nc2cc(Cl)ccc2Cl)c1)c1cccnc1
  A = -8	B = 4	C = 2	D = 3	E = 4255	F = 10	G = 22

Cc1cc(SCC(=O)Nc2ccccc2)nc(C)n1
  A = -6	B = .	C = .	D = 3	E = 2729	F = 3.1	G = -2

CC(=O)c1ccc(N2CCN(C(=O)c3ccc4[nH]c(C)c(C)c4c3)CC2)cc1
  A = -5	B = -3	C = 2	D = 2	E = 3040	F = 0.3	G = .

CCOc1ccc(NC(=S)N(CCCN2CCCC2)Cc2cccn2Cc2ccc(Cl)cc2)cc1
  A = -17	B = 9	C = -1	D = 6	E = 4617	F = 0.8	G = -16

Cc1ccc(S(=O)(=O)N2CCC(C(=O)NC3CC(C)(C)NC(C)(C)C3)CC2)cc1
  A = -56	B = .	C = .	D = .	E = 5694	F = .	G = -11

Cn1c(COc2ccc(Cl)cc2)nnc1SCC(=O)NC1CCCC1
  A = -20	B = -7	C = -6	D = 1	E = 6037	F = -2.8	G = -10

Fc1ccc2[nH]c3c(Cl)ncnc3c2c1
  A = -5	B = 4	C = 0	D = 0	E = 4718	F = -2.3	G = 2

COC(=O)c1c(C)oc(C)c1S(=O)(=O)NCc1ccc(OC)cc1
  A = -2	B = 7	C = 1	D = 3	E = .	F = 3.6	G = -14

Cc1cc(-c2ccccc2)nc(N2CCC(C(=O)NC34CC5CC(CC(C5)C3)C4)CC2)n1
  A = -25	B = 0	C = 1	D = -12	E = 3887	F = -2.9	G = -7

CCCc1nnc(SCC(=O)O)n1/N=C/c1ccc2c(c1)OCO2
  A = -13	B = .	C = .	D = .	E = 9646	F = .	G = 6

COCCSc1nnc(NC(=O)c2cc(OC)c(OC)cc2[N+](=O)[O-])s1
  A = -19	B = 8	C = 6	D = -2	E = 3693	F = 5.0	G = -5

COc1ccccc1CNC(=O)N1CCN(c2ccccc2Cl)CC1
  A = -6	B = -4	C = -3	D = 13	E = 5969	F = -1.4	G = -4

O=C(COC(=O)CCc1nc2ccccc2s1)Nc1nc(-c2ccccc2)cs1
  A = -23	B = -6	C = 2	D = 0	E = 1980	F = -1.0	G = 0

CCOC(=O)c1ccc(NC(=O)Nc2ccn(C)n2)cc1
  A = -8	B = 8	C = 3	D = -2	E = 8237	F = -0.6	G = 1

CC#CCN(CC#CC)S(=O)(=O)c1ccc(S(=O)(=O)N2CCOCC2)cc1
  A = 1	B = -1	C = 0	D = 3	E = 5682	F = 14	G = 13

Cc1cc(-c2ccccc2)nc(SCC(=O)c2cccc([N+](=O)[O-])c2)n1
  A = -9	B = 6	C = 14	D = -14	E = 11089	F = 26	G = 3

O=c1/c(=C/c2ccco2)sc2n1CN(c1ccccc1)CN=2
  A = -34	B = .	C = .	D = .	E = 2362	F = .	G = -1

COc1ccc(/C=N/NC(=O)c2cccnc2)c2ccccc12
  A = -10	B = .	C = .	D = .	E = 3930	F = .	G = 5

CCOC(=O)C1CCN(c2c(NCc3ccc(N(C)C)cc3)c(=O)c2=O)CC1
  A = -21	B = -10	C = 2	D = 8	E = 4466	F = 3.1	G = -18

CCN(C(=O)Cn1cc(C(C)=O)c2ccccc21)c1ccccc1
  A = -23	B = 6	C = 6	D = 2	E = 2458	F = 3.4	G = -7

Cc1nc2c3ccccc3n(CC(=O)c3ccc(F)cc3)c(=O)n2n1
  A = -28	B = .	C = .	D = 16	E = 5504	F = 4.7	G = -10

COCCCN1C(=O)c2ccc(C(=O)OCC(=O)N(C)c3ccccc3)cc2C1=O
  A = -8	B = 10	C = -3	D = -1	E = 4024	F = 2.7	G = 5

Cc1ccc(C(C)C)c(OC/C(O)=C(\C#N)c2nc3ccccc3[nH]2)c1
  A = -25	B = 9	C = 3	D = -22	E = 5033	F = 6.3	G = 1

Cc1ccc(S(=O)(=O)c2c(N)n(CCC(C)C)c3nc4ccccc4nc23)cc1
  A = -7	B = 2	C = 6	D = -32	E = 22605*	F = -6.3	G = -1

CN(C)S(=O)(=O)N(CC(=O)N1CCN(Cc2ccccc2)CC1)c1ccccc1
  A = -12	B = -4	C = -4	D = -2	E = 3537	F = 1.7	G = 4

O=C(O)C1OC(C(=O)O)C2C1C(F)(F)C2(F)F (stereo not drawn)
  A = -11	B = 0	C = -1	D = 6	E = 9269	F = 6.0	G = -9

Cc1ccccc1Cn1cnc2ccccc2c1=O
  A = -9	B = 1	C = 6	D = 1	E = 1913	F = 2.7	G = -4

CCN(CCn1cccn1)C(=O)CCc1nnc(C2CCCCC2)o1
  A = -7	B = 3	C = 11	D = 6	E = 3686	F = 2.9	G = -8

4 compounds out of the list, sorted by SMILES length, highest first.
Abbreviations – A = PrP UTR inh; B = Mtb hypoxia rep; C = Mtb hypoxia rep growth; D = ugtP null kill; E = Bead autofluor; F = RN4220 kill; G = BJeLR viability
Cc1ccc(S(=O)(=O)c2c(N)n(CCC(C)C)c3nc4ccccc4nc23)cc1
  A = -7	B = 2	C = 6	D = -32	E = 22605*	F = -6.3	G = -1

CCOC(=O)C1CCN(c2c(NCc3ccc(N(C)C)cc3)c(=O)c2=O)CC1
  A = -21	B = -10	C = 2	D = 8	E = 4466	F = 3.1	G = -18

Cc1nc2c3ccccc3n(CC(=O)c3ccc(F)cc3)c(=O)n2n1
  A = -28	B = .	C = .	D = 16	E = 5504	F = 4.7	G = -10

O=c1/c(=C/c2ccco2)sc2n1CN(c1ccccc1)CN=2
  A = -34	B = .	C = .	D = .	E = 2362	F = .	G = -1

Carrying on.
Abbreviations – A = PrP UTR inh; B = Mtb hypoxia rep; C = Mtb hypoxia rep growth; D = ugtP null kill; E = Bead autofluor; F = RN4220 kill; G = BJeLR viability
CCOc1ccc(NC(=O)CN2C(=O)CSC(C)C2=O)cc1 (stereo not drawn)
  A = -9	B = -15	C = 0	D = 1	E = 5415	F = 0.8	G = -1

COc1ccc(/C(O)=C2/C(=O)C(=O)N(CCCN3CCOCC3)C2c2ccc(C(C)C)cc2)cc1 (stereo not drawn)
  A = -38	B = -4	C = -1	D = 12	E = 4086	F = 4.6	G = 2

CC(Sc1nc2ccccc2[nH]1)C(=O)Nc1ccc2c(c1)OCCO2 (stereo not drawn)
  A = -18	B = .	C = .	D = -3	E = 4934	F = -0.6	G = 4

CCc1cccc(NC(=O)C2CCN(c3ncnc4sc(C)c(C)c34)CC2)c1
  A = -11	B = 6	C = 2	D = -13	E = 4050	F = -8.5	G = .

COc1ccc(-n2c(=S)[nH]c3cc(C(=O)Nc4ccc(C)c(F)c4)ccc3c2=O)c(OC)c1
  A = -12	B = -2	C = 9	D = 7	E = 4064	F = -6.6	G = 10

COc1ccc(C(=O)NNC(=O)Cc2coc3cc(OC)ccc23)cc1
  A = 7	B = 5	C = 4	D = 4	E = 2919	F = 0.4	G = .

CCOC(=O)c1[nH]c(C)c(CN(C(C)=O)c2ccc(OCC)cc2)c1C
  A = -13	B = 7	C = 2	D = 0	E = 4762	F = 3.6	G = -1

O=C1CC2(CCN(S(=O)(=O)c3ccccc3)CC2)Oc2ccccc21
  A = -3	B = 10	C = -1	D = 7	E = ?	F = 5.2	G = 1

O=C(Nc1ncn[nH]1)c1cc(S(=O)(=O)Nc2ccc(Cl)cc2)ccc1Cl
  A = 0	B = 7	C = 0	D = 3	E = 1940	F = 2.6	G = -5

Cc1ccc(Cl)c(OCCN2CCCC(C)C2)c1 (stereo not drawn)
  A = -27	B = 8	C = 7	D = -1	E = 2518	F = 3.1	G = -13

Cc1ccc(S(=O)(=O)Nc2ccc(NC(=O)CN3CCCCC3)c(Cl)c2)cc1
  A = -13	B = 10	C = 10	D = -12	E = 19818*	F = 30	G = 3

NCc1ccc2[nH]c(=O)[nH]c2c1
  A = -19	B = 5	C = 9	D = 2	E = 3876	F = 2.5	G = 0

O=C(Cc1nnc(NC(=O)c2ccccc2)s1)N/N=C/c1ccc(O)cc1
  A = -1	B = .	C = .	D = .	E = 3638	F = .	G = 2

CCOC(=O)c1sc2nc(N3CCOCC3)c3c(c2c1N)CCC3
  A = -23	B = 8	C = 4	D = -5	E = 8707	F = -1.0	G = -11

O=C(CN(C(=O)CNS(=O)(=O)c1ccc(F)cc1)c1ccc(F)cc1)NCc1ccco1
  A = -20	B = 12	C = 4	D = 3	E = 3587	F = 4.0	G = -5

O=C(Nc1cccc(S(=O)(=O)NC2=NCCCCC2)c1)c1cc(-c2ccccc2Cl)nc2ccccc12
  A = -16	B = 8	C = -10	D = -7	E = 2519	F = -1.5	G = -3

COc1ccccc1N1CCN(C(=O)C2CCN(S(=O)(=O)N3CCOCC3)CC2)CC1
  A = -10	B = 5	C = 3	D = -8	E = 2958	F = -15	G = .

O=C(CCCCCN1C(=O)[C@@H]2Cc3ccccc3CN2C1=O)Nc1ccccc1F
  A = -34	B = -1	C = -1	D = 3	E = 6041	F = 1.3	G = 0

CC1(C)CC(=O)C(C=NCCN2CCN(CC(=O)Nc3ccc(F)cc3)CC2)=C(O)C1
  A = -9	B = -4	C = 13	D = 0	E = 6043	F = 1.4	G = 2

Cc1c(Cl)cccc1Nc1nc(N)nc(CSc2nc3ccccc3s2)n1
  A = 0	B = 15	C = 5	D = -18	E = 2331	F = -8.1	G = 0

Cc1cc(=O)c(C(=O)O)nn1-c1ccccc1
  A = -31	B = 8	C = -1	D = 4	E = 4496	F = -4.2	G = 2

COc1ccccc1CO/N=C/c1cccn1-c1nccc(N(C)C)c1C#N
  A = -16	B = .	C = .	D = .	E = 2854	F = .	G = 6

Nc1nonc1-n1nnc(C(=O)N/N=C/c2cccnc2)c1CSC1=NCCS1
  A = -8	B = .	C = .	D = .	E = 3949	F = .	G = 9

Cc1ccc(NC(=O)c2[nH]cnc2C(=O)NN)cc1
  A = -41	B = 0	C = 1	D = 3	E = 4319	F = 0.7	G = 0

COc1ccc(CCN2CC(C(=O)OCC(=O)NCc3ccccc3Cl)CC2=O)cc1OC (stereo not drawn)
  A = -16	B = 13	C = 8	D = 3	E = 4168	F = 0.7	G = .

O=C(CCN1CCC2CCC(C2)C1)c1ccc(F)cc1 (stereo not drawn)
  A = -3	B = 6	C = 4	D = 11	E = 3924	F = -3.8	G = .

COc1ccc(C2CC(=O)C=C(C=Cc3ccc(C(F)(F)F)cc3)C2)cc1 (stereo not drawn)
  A = .	B = 14	C = -2	D = 4	E = .	F = -3.0	G = .

O=C1CN(C(=O)COC(=O)C2=COCCO2)c2ccccc2N1
  A = -5	B = 21	C = 12	D = -1	E = 3919	F = 0.6	G = 1

COc1ccc(C=NNC(=O)CN(CCc2ccccc2)S(=O)(=O)c2ccc(NC(C)=O)cc2)cc1OC
  A = .	B = 11	C = 3	D = 1	E = .	F = -0.4	G = .

O=C(CSc1ccc2nnc(-c3cccs3)n2n1)N1CCOCC1
  A = -9	B = -3	C = -4	D = -8	E = 6095	F = -1.4	G = .

Cc1c(C(=O)NC2CCC(C)CC2)oc2ccccc12 (stereo not drawn)
  A = -84	B = 8	C = 0	D = 0	E = 5239	F = 2.0	G = -10

CC(c1ccccc1)n1c(-c2cccs2)nc2c(c(=O)c3ccccc3n2C)c1=O (stereo not drawn)
  A = .	B = 10	C = 13	D = -2	E = 6191	F = 1.5	G = -8

C/C(=N/NC(=O)c1cnccn1)c1ccncc1
  A = -30	B = .	C = .	D = .	E = 4710	F = .	G = 1

Cc1ccc2cc(CCNC(=O)c3ccc(C)c([N+](=O)[O-])c3)c(=O)[nH]c2c1
  A = -28	B = 5	C = 4	D = 1	E = 9070	F = 8.6	G = -1

O=C(CCc1ccccc1Cl)Nc1cc(S(=O)(=O)N2CCOCC2)ccc1N1CCCC1
  A = 0	B = -6	C = 9	D = 1	E = 6885	F = 2.4	G = .

Cc1ccc(N)cc1S(=O)(=O)N(C)C
  A = -37	B = 12	C = -2	D = 5	E = 4671	F = 0.1	G = -2

CCOc1ccc(-c2nc(N)nc(C)c2-c2ccc(Cl)cc2)c(O)c1
  A = .	B = 2	C = 0	D = -6	E = 3908	F = -3.5	G = -4

Cc1ccc(NC(=O)NCCN2CCCCC2)cc1C
  A = -5	B = -8	C = 2	D = -1	E = 4028	F = -1.4	G = 10

Screening data: PubChem, several laboratories
